Assay outcomes (PubChem)
HSV augment – enhancers of HSV replication in host cells, fold increase, host cell viability | actives 0.005% (n = 220,000) | AID 1956, 2009 | maximum fold increase | HSV replication augmentation in cells;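 active means peak rise of 1.5-fold or more in the series; inconclusive means self-fluorescent or not available for retest; tested in PC3 cells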;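 further: first round at 10 µM; read as green reporter fluorescence; hits show the peak of a series up to 25 µM; 1 = signal of infected wells without compound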
RGS16-Gao HTS – modulators of RGS16 binding to Galphao, primary screen, biochemical, human proteins, multiplexed bead flow cytometry; Regulator of G-protein signaling 16 (Homo sapiens) + Guanine nucleotide-binding protein …; bead-based flow cytometry RGS16-Galphao binding, fluorescence; actives lie on both sides; binding response (% of control), % at 10 µM; actives 0.38% (n = 220,000);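 active means below 25% or above 175%, edge rows of some plates excepted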;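 further: Galphao activated by GDP with aluminum fluoride before binding; 100% = wells without compound and 0% = beads without RGS; some results beyond the cut were filed as inactive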
Target sequence (O15492 whole entry, looked up): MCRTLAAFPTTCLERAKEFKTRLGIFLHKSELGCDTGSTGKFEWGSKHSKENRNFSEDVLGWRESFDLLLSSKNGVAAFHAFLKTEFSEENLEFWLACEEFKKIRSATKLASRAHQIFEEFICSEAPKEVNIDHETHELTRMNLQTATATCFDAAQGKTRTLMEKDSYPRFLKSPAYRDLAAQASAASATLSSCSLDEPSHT
Target sequence (P09471 whole entry, looked up): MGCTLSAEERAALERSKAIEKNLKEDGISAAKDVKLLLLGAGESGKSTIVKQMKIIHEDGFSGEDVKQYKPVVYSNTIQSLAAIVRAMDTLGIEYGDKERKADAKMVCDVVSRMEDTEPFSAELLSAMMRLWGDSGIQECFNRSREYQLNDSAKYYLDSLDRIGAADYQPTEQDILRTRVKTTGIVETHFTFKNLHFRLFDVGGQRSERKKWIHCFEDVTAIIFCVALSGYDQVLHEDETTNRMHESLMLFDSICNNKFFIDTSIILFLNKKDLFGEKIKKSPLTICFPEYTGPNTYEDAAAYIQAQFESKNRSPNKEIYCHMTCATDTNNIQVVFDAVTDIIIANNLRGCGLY
PKD1 kinase inh – inhibitors of human PKD1 kinase, biochemical, fluorescence polarization | Serine/threonine-protein kinase D1 (Homo sapiens), Q15139 | PKD1 kinase fluorescence polarization assay | inhibition, %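 (about 10 µM by stock and volumes)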 | actives 0.056% (n = 200,000) | AID 797, 2007;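 active means inhibition of 50% or more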;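 further: controls were vehicle for no effect and a reference inhibitor for full effect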
Insulin prom inh – inhibitors of insulin promoter-driven GFP, primary screen, imaging, TRM-6 cells (human fetal islet line), eGFP reporter, cell count. actives 0.9% (n = 130,000). reporter expression induced with tamoxifen. AID 1273, 2008. inhibition, % at 2 µM;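 active means inhibition above the mean plus 3 SD, with well images judged a real hit on visual review, cut at about 60% in these data, passing the limit was not always enough; inconclusive means inhibition over the cutoff but images rejected on review; inactive means inhibition not above the cutoff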
GALR2 agonist – GALR2 receptor agonists, primary screen, cell-based. GALR2-expressing cells, agonist activation read-out. activation, %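 (tested at 5 µM)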. actives 0.48% (n = 140,000). AID 803, 2007;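 active means above mean plus 3 SD of all compounds, about 5% in these data, not always enough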;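 further: 0% = vehicle buffer wells and 100% = reference agonist at full effect; tested in CHO reporter cells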
Target sequence (O43603 whole entry, looked up): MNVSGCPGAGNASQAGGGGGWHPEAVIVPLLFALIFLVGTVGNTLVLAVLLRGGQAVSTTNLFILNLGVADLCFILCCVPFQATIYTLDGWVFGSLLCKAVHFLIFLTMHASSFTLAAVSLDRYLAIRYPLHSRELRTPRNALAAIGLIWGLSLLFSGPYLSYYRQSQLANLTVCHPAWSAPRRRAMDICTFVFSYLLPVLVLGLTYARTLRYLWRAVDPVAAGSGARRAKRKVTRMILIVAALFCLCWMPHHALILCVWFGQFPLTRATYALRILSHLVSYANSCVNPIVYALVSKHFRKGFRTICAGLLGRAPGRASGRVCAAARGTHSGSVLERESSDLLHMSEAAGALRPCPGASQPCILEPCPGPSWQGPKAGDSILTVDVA
Insulin prom inh cell count – further read-out of Insulin prom inh, marked with its call; normalized cell count, %; measured here: cell count, toxicity; reference of the scale not given here;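 cells exposed to compound for 48 h; stained nuclei by imaging scaled within each plate; lower means fewer cells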
HSV augment primary fold – recorded beside HSV augment, whose call it bears; fold increase; compound at 10 µM; measured here: primary screen fold increase 10 uM; tested in PC3 cells;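 GFP signal in the first replicate; 1 = infected wells without compound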
Starred values were filed as active, the others as inactive; i = inactive; ? = inconclusive; . = not tested or not shown.

SMILES	HSV augment	HSV augment primary fold	RGS16-Gao HTS	PKD1 kinase inh	Insulin prom inh	Insulin prom inh cell count	GALR2 agonist
CC(C)CCn1c(C(C)O)nc2ccccc21 (stereo not given)	i	0.93	98.1	-8.7	57.1	52.2	-1.6
COc1ccc(NC(=O)CSc2nnc(CNC(=O)COc3ccc(Cl)cc3)o2)c(OC)c1	i	0.98	103.7	-0.9	-21.4	156.5	-0.9
O=c1ccc2cc(S(=O)(=O)Nc3ccc(F)cc3)ccc2o1	i	1.04	101.3	3.5	-234.5	29.5	-2.4
CC(C)C[C@H](NC(=O)c1nc[nH]c1C(=O)N[C@@H](CC(C)C)C(=O)OC(C)(C)C)C(=O)OC(C)(C)C	i	0.72	99.5	.	.	.	.
O=C1Cc2ccccc2Sc2c(OCCN3CCCCC3)cccc21	i	0.92	102.3	11.8	-17.9	89.6	0.6
CC(=O)c1ccc(OCC(O)CN2CCN(c3ccccn3)CC2)cc1 (stereo not given)	i	0.75	106.0	-4.7	.	.	-1.8
O=C(Nc1ccc(N2CCOCC2)cc1)c1cnsn1	.	.	104.7	9.0	15.8	89.3	-2.3
CCCn1nc(C(=O)OCC(=O)Nc2cccc(OC)c2)c2ccccc2c1=O	i	0.99	102.1	-0.1	-41.2	70.2	.
COc1ccc(CCN(C)C(=O)CSc2nnnn2C)cc1OC	i	1.07	99.1	-0.7	.	.	.
O=C(CC1Nc2ccccc2NC1=O)Nc1ccccc1NC(=O)CC1Nc2ccccc2NC1=O (stereo not given)	i	1.8	96.9	-0.8	.	.	.
COc1ccccc1C1CC(=O)NC(C)=C1C(=O)OCC1CCCO1 (stereo not given)	i	1.02	91.6	-2.7	0.0	96.6	-0.4
Cc1ccc(NC(=O)CSc2nnc(-c3ccncc3)n2C)cc1C	i	0.9	99.2	-13.6	-15.8	62.2	-2.9
CC(=O)NCCNC(=O)CCNC(=O)c1ccc(Cl)cc1	i	1.02	67.1	6.0	-10.3	131.3	-1.6
CCN(CC)CCCNC(=O)CCC(=O)Nc1ccc2nc(N3CCC(C)CC3)cc(C)c2c1	i	0.81	91.8	2.5	-75.0	131.2	.
CSCCC(NC(N)=O)C(=O)Nc1ccc(F)c(Cl)c1 (stereo not given)	i	0.96	88.8	.	.	.	.
Cc1ccccc1NS(=O)(=O)c1ccc(Cl)cc1	i	1.1	100.9	-1.5	.	.	.
COc1ccc(-c2oc(NC(=O)CSc3nncn3C)c(C#N)c2-c2ccc(OC)cc2)cc1	i	0.98	102.0	1.3	.	.	-1.4
O=C(Nc1nnc(-c2cccc(F)c2)s1)Nc1ccccc1F	i	0.73	105.0	-3.2	.	.	.
NNc1ccc(Cl)nn1	i	0.82	98.1	.	.	.	.
CN(C)S(=O)(=O)c1ccc(C(=O)Nc2cccnc2)cc1	i	0.92	75.8	-6.6	-57.1	68.9	-0.8
Cc1nnc(SCc2cccc(Oc3ccccc3)c2)n1N	i	0.96	71.9	-5.5	4.9	134.4	-1.1
CCOC(=O)Cc1c(C)nc2cc(-c3ccc(C(C)(C)C)cc3)[nH]n2c1=O	i	0.53	106.4	-8.4	-33.3	127.9	-1.1
Brc1ccc(OCCOCCN2CCOCC2)cc1	i	0.7	128.9	-3.4	45.5	77.1	-1.6
N/C(=N\O)c1ccc(Oc2ccccc2Cl)c([N+](=O)[O-])c1	i	0.91	104.9	.	.	.	.
COCCN(CCOC)C(=O)C1CCCN(S(=O)(=O)c2ccc(NC(=O)OC)cc2)C1 (stereo not given)	i	0.98	84.9	.	.	.	.
Nn1c(Cc2cccc3ccccc23)nnc1SCC(=O)NC1CCS(=O)(=O)C1 (stereo not given)	i	0.89	101.9	0.4	.	.	-2.0
C/C(=N\NC(=O)c1c(Br)c(C)nn1C)c1ccc(NC(=O)c2ccoc2C)cc1	i	0.97	124.2	-4.5	57.1	92.3	-0.8
CCOC(=O)N1CCC(NC(=O)C2CCCCN2S(=O)(=O)c2ccc(F)cc2)CC1 (stereo not given)	i	1.19	99.1	-4.7	.	.	0.2
Cc1cc2cc(CN(Cc3ccc4c(c3)OCO4)C(=O)c3ccco3)c(=O)[nH]c2cc1C	i	1.01	94.8	5.8	.	.	1.6
CCN(CC)CCC(c1cc(OC)c(OC)c(OC)c1)c1c(OC)cc(OC)c2c(-c3ccccc3)cc(=O)oc12 (stereo not given)	i	0.67	100.8	.	.	.	.
COc1nc(-c2ccccc2Cl)ccc1C#N	i	1.03	103.2	1.9	-77.8	69.6	-1.1
CCOC(=O)COc1nc(C)c(Br)c(OC)n1	i	0.98	101.5	-11.0	-7.1	193.1	-1.6
O=C(O)Cc1ccc(NC(=S)Nc2cccc(Cl)c2Cl)cc1	i	0.94	95.5	-0.9	-26.3	55.3	-0.3
Cc1c(NC(=O)/C=C/C(=O)O)cccc1[N+](=O)[O-]	i	0.92	100.3	-2.8	.	.	-3.5
Cc1ccc(S(=O)(=O)CCSc2n[nH]c(=O)n2-c2ccccc2)cc1	i	0.9	105.5	.	.	.	.
COC(=O)COc1cccc2c(=O)n(CC(=O)N3CCCCC3)ccc12	i	0.98	100.3	.	.	.	.
COc1cc2c(cc1OC)-c1nnnn1C(C)(C)C2	i	0.89	101.2	-1.6	13.5	72.1	-5.0
CCCNc1nc(C)cc(-c2cc(-c3ccc(Cl)cc3)on2)n1	i	1.03	103.9	.	.	.	.
CN(N)c1ccc2c(C(F)(F)F)cc(C(F)(F)F)nc2n1	i	1.01	94.7	-2.8	.	.	.
N#CC1=C(N)NC(SCC(=O)c2ccc(Cl)cc2)=C(C#N)C12CCCC2	i	0.94	99.7	3.5	26.1	112.8	-1.6

Reprinted from the entries so far (two entries):
SMILES	HSV augment	HSV augment primary fold	RGS16-Gao HTS	PKD1 kinase inh	Insulin prom inh	Insulin prom inh cell count	GALR2 agonist
CN(N)c1ccc2c(C(F)(F)F)cc(C(F)(F)F)nc2n1	i	1.01	94.7	-2.8	.	.	.
N#CC1=C(N)NC(SCC(=O)c2ccc(Cl)cc2)=C(C#N)C12CCCC2	i	0.94	99.7	3.5	26.1	112.8	-1.6

Taken from above.
For Insulin prom inh cell count, Brc1ccc(OCCOCCN2CCOCC2)cc1 is entered as 77.1
For RGS16-Gao HTS, N/C(=N\O)c1ccc(Oc2ccccc2Cl)c([N+](=O)[O-])c1 is entered as 104.9

Other records follow.
SMILES	HSV augment	HSV augment primary fold	RGS16-Gao HTS	PKD1 kinase inh	Insulin prom inh	Insulin prom inh cell count	GALR2 agonist
CC1(C)Cc2cccc(OCC(=O)N3CCN(S(=O)(=O)c4ccccc4)CC3)c2O1	i	0.82	88.0	-8.8	.	.	-0.9
CSc1nc2n(n1)C(c1cccc(F)c1)C(C(=O)Nc1ccc(C)cc1C)=C(C)N2 (stereo not given)	i	1.18	99.9	-6.3	-2.3	100.4	0.2
COC(=O)c1sccc1N/N=C/c1cccc(Oc2ccccc2)c1	i	1	106.3	-4.5	43.8	143.8	0.1
CCCN(CCC)c1nc(N)c(C#N)c(CC#N)c1C#N	i	1.02	102.8	4.8	-15.6	59.4	0.1
COCCN1C(=O)C(=O)/C(=C(/O)c2ccc(OC(C)C)cc2)C1c1cccnc1 (stereo not given)	i	0.77	104.4	0.5	-10.3	53.3	-2.1
CCOc1ccc(C2c3c(oc4ccccc4c3=O)C(=O)N2CCCN2CCOCC2)cc1 (stereo not given)	i	0.963	108.8	-24.1	.	.	-3.1
Cc1c(C(=O)OCC(=O)Nc2ccc(S(N)(=O)=O)cc2)oc2c1ccc1ccccc12	i	0.71	97.5	-4.8	.	.	.
COc1cccc(NC(=S)NNC(=O)CCn2cc([N+](=O)[O-])cn2)c1	i	0.95	102.2	3.4	.	.	.
S=C(Nc1ccccc1)Nc1ccccc1Br	i	0.81	95.9	.	.	.	.
CCc1nc2sc3c(c2c(=O)o1)CCCC3	.	.	88.5	10.9	7.1	106.7	-0.1
COc1ccccc1NC(=O)CCC(=O)Nc1ccccc1OC	i	0.86	100.3	-0.4	16.2	98.6	0.4
COc1ccc(/C=C/C(=O)NCC(=O)N/N=C/c2cc(Br)ccc2OC)cc1	i	1.1	95.9	-0.9	55.3	123.3	-0.3
COc1ccc(CN2CC(=O)N(c3ccc(C)cc3C)C2=S)cc1OC	i	0.89	109.1	-3.6	-16.7	68.0	.
CC(=O)Nc1nc(C2CC2)cc(-c2ccccc2)c1C#N	i	0.88	103.5	-4.7	-6.2	73.1	.
CC(C)Sc1snnc1-c1ccccc1	i	1.01	97.2	0.1	.	.	.
Cc1nnc(SCC(=O)NNC(=O)COc2ccc(Cl)cc2)s1	i	0.91	107.4	-5.0	0.0	97.6	.
COc1ccc(CCNC(=O)CSc2cc(=O)[nH]c(N)n2)cc1OC	i	0.98	100.0	-4.5	.	.	-0.4
CCOC(=O)C1CCN(Cc2nc3ccc([N+](=O)[O-])cc3c(=O)n2-c2ccc(OC)cc2OC)CC1	i	0.89	101.1	4.6	.	.	.
COc1cccc(C(=O)N2C(C(=O)O)CSC2c2ccccc2Cl)c1 (stereo not given)	i	0.94	100.2	-3.9	28.6	120.1	-2.5
Cc1cccc(N2CCN(C(c3ccccc3)c3nnnn3C(C)(C)C)CC2)c1C (stereo not given)	.	.	101.5	-0.7	56.2	95.0	-2.9

Full records as entered above. Order of values: HSV augment	HSV augment primary fold	RGS16-Gao HTS	PKD1 kinase inh	Insulin prom inh	Insulin prom inh cell count	GALR2 agonist
CSc1nc2n(n1)C(c1cccc(F)c1)C(C(=O)Nc1ccc(C)cc1C)=C(C)N2 (stereo not given) in the list: i	1.18	99.9	-6.3	-2.3	100.4	0.2
CCc1nc2sc3c(c2c(=O)o1)CCCC3 in the list: .	.	88.5	10.9	7.1	106.7	-0.1
CCCN(CCC)c1nc(N)c(C#N)c(CC#N)c1C#N in the list: i	1.02	102.8	4.8	-15.6	59.4	0.1
CCOc1ccc(C2c3c(oc4ccccc4c3=O)C(=O)N2CCCN2CCOCC2)cc1 (stereo not given) in the list: i	0.963	108.8	-24.1	.	.	-3.1

(next part)
SMILES	HSV augment	HSV augment primary fold	RGS16-Gao HTS	PKD1 kinase inh	Insulin prom inh	Insulin prom inh cell count	GALR2 agonist
COc1ccc(-c2n[nH]c(C)c2-c2cnn(-c3ccccc3)c2)c(O)c1	i	0.82	113.7	6.1	70.8	58.8	-1.3
CSc1nc(Cl)c(Cc2ccc(OCC(C)C)cc2)c(N2CCOCC2)n1	i	0.99	103.1	-1.6	-3.6	114.2	-1.7
COC(=O)CN(C(=S)Nc1ccc(F)cc1)C1CC(=O)N(c2ccccc2)C1=O (stereo not given)	i	0.95	101.2	-4.9	-39.3	117.6	-0.1
COc1ccc(NC(=S)Nc2cc(C)cc(C)n2)cc1OC	i	0.91	89.8	-5.8	.	.	0.3
CCC(=O)N(CCC1(c2ccccc2OC)CCOC(C(C)C)C1)Cc1ccco1 (stereo not given)	i	1.06	93.8	.	.	.	.
O=C(O)CCC(=O)Nc1nc2nc(-c3ccccc3)cc(-c3ccccc3)n2n1	.	.	119.0	-0.7	14.3	53.8	-0.2
O=C(c1ccco1)N1CCN(C(c2coc3ccc(Cl)cc3c2=O)c2nnnn2C2CCCC2)CC1 (stereo not given)	i	1	.	-0.7	34.9	91.5	-0.7
CCCCN1CC(COc2ccccc2)OC1=O (stereo not given)	i	0.96	107.8	-6.8	.	.	-1.9
COc1ccc(/C=C/C(=O)NCCC(=O)N2CCCN(C)CC2)cc1	i	0.98	107.4	-3.2	-85.7	80.5	.
COc1ccccc1/C=N/NC(=O)c1ccc(=O)n(C)c1	i	0.94	105.0	-6.2	18.8	99.8	-1.0
CCCSc1nnc(Cn2c(=O)sc3ccccc32)n1-c1ccccc1	i	1.07	96.9	-3.1	.	.	-3.5
Cc1cc(/N=C/C=C2\N(C)c3ccccc3C2(C)C)n(CCC#N)n1	i	0.82	102.5	-4.1	.	.	-1.0
O=C(COc1ccc(S(=O)(=O)N2CCCC2)cc1Cl)N1CCN(c2ccccc2)CC1	i	0.95	110.8	4.5	0.0	97.7	-1.3
C=CCNC(=O)c1onc(CSc2cccc(OCC)c2)c1C(=O)O	i	1.06	99.4	7.3	16.2	147.2	-4.1
CSc1nc(N)nc(SCC(=O)Nc2ccc(Cl)cc2)c1C#N	i	0.7	103.0	-0.3	0.0	108.6	2.0
O=C1NCCc2c1[nH]c1ccc([N+](=O)[O-])cc21	i	0.88	102.1	6.9	40.0	79.0	.
NC(=O)CC1Nc2cccc3cccc(c23)NC1=O (stereo not given)	?	.	105.0	-4.0	.	.	-1.9
Cc1cccc(N(CC(=O)N2CCOCC2)S(C)(=O)=O)c1C	i	0.92	92.2	-6.0	-13.5	123.7	1.6

No enrichment for hits. Share with any hit: about 1.3%.
